HCMV UL50-53 inh: disrupts HCMV UL50-UL53 complex binding | inhibition, % (test concentration not listed) | AID 1918969 | 190,000 compounds, 0.15% hits | HTRF UL50-UL53 interaction, normalized percent inhibition;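 active = both replicates at 50% or more, plus weaker picks with an unusually low signal ratio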;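 note: stock transfer was 100 nL into about 20 µL; 0% = negative control wells and 100% = wells with untagged competitor protein; inactives centre near -12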
Sa growth 42C: S. aureus growth inhibition | S. aureus RN4220 growth, OD600, 20 h, 42 °C; stronger effect = lower value | relative growth, % (concentration not given with the values) | 170,000 compounds, 0.53% hits;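 active = growth at 42 °C up to 50% and 20 or more points under that at 30 °C, or under 10% at both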;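 note: 300 nL library stock went into each well; scaled to the means of positive and negative controls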
GIV Gai3 FP: inhibitors of GIV GBA-motif binding to rat Galpha-i3; Galpha-i3/FITC-GIV peptide fluorescence polarization, 90 min; stronger effect = lower value; scaled: aluminum fluoride 0%, vehicle 100%; percent of control (FP), % (no concentration beside the values); 210,000 compounds, 0.42% hits; AID 1224905;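 active = replicate mean at 85% of control or lower, very high polarization wells dropped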;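 note: wells of about 15 µL received 100 nL stock; the first replicate is given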
Target sequence (P08753 whole entry, looked up): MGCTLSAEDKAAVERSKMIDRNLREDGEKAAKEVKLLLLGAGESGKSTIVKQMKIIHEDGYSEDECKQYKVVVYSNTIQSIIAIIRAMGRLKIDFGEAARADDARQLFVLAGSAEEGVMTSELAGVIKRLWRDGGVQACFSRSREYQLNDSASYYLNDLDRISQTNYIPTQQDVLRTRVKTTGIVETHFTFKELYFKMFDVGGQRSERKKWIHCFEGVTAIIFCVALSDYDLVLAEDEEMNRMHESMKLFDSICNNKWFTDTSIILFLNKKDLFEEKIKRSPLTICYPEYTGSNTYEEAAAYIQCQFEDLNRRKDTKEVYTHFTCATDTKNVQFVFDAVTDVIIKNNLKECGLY
Sa growth 42C second temp: also measured in Sa growth 42C; calls as there; relative growth, %; measured here: growth at 30 °C;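 optical density after 20 h as mean of two plates; 100% = untreated growth and lower means inhibition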
Numbers without * were called inactive; i = inactive; x = not tested or not shown; & = joins results of further samples. Not a hit list. Share with any hit: about 0.82%.

SMILES	HCMV UL50-53 inh	Sa growth 42C	Sa growth 42C second temp	GIV Gai3 FP
CSc1nnc(C)c(=O)n1N	-31.6	88.4	85.3	102.5
NC(=O)c1ccc(NC(=O)c2cccc3c2OCCCO3)cc1	-50.2	91.9	82.8	102.9
Cc1cccc(Cn2cccc2CNS(C)(=O)=O)c1	-2.8	x	x	106.7
CCN1C(=O)/C(=C/C=C2/Sc3cc(NC(C)=O)ccc3N2CC)N(c2ccccc2)C1=S	x	91.0	93.5	234.1
NC(=O)c1cc(-c2ccc3c(c2)OCO3)no1	-72.4	89.2	77.3	96.3
Cc1ccc(CNC(=O)CCc2nc(-c3ccc(C)cc3)no2)cc1	3.5	83.0	90.8	102.4
COc1cccc(C2C3=C(CC(C)(C)CC3=O)Nc3ccccc3N2C(=O)C(F)(F)F)c1OC (centres undefined)	-15.1	x	x	104.0
O=C(NCc1cccs1)c1ccc(CSc2nc3cccnc3n2Cc2ccc(F)cc2)cc1	x	103.3	87.9	98.1

Single records, as listed above. Order of screens: HCMV UL50-53 inh, Sa growth 42C, Sa growth 42C second temp, GIV Gai3 FP
Shown for Cc1ccc(CNC(=O)CCc2nc(-c3ccc(C)cc3)no2)cc1 → 3.5, 83.0, 90.8, 102.4
Shown for NC(=O)c1ccc(NC(=O)c2cccc3c2OCCCO3)cc1 → -50.2, 91.9, 82.8, 102.9

(continued)
SMILES	HCMV UL50-53 inh	Sa growth 42C	Sa growth 42C second temp	GIV Gai3 FP
COc1cc(/C=c2/sc3nc4ccccc4n3c2=O)cc(OC)c1O	x	94.2	96.0	190.8
Cc1nnc(N2CCCC(C(=O)NC(C)C)C2)c2nn(-c3ccccc3)c(C)c12 (centres undefined)	-20.4	97.6	89.7	103.9
COc1ccc(-n2c(=O)c3c4c(sc3n(Cc3ccc(F)cc3)c2=O)CCCC4)c(OC)c1	-10.5	98.5	87.8	101.0
O=C(O)CCCn1c(=O)c2cccn2c2ccc(F)cc21	2.6	89.2	92.1	107.3
Cc1cc(-c2c(C(=O)N3CCCCC3)c(C)nn2-c2cccc(C(F)(F)F)c2)no1	2.4	98.1	70.9	99.9
CC(C)(C)C1CCc2oc3ccc(NS(=O)(=O)c4ccc(C(=O)O)cc4)cc3c2C1 (centres undefined)	i	37.0	31.9	101.8
COc1ccccc1NC(=O)C1C(=O)NC23CCCCC2C1c1ccccc1O3 (centres undefined)	-4.5	90.2	88.8	96.5
CC(OC(=O)C1CC1)C(=O)Nc1cc(C(F)(F)F)ccc1Cl (centres undefined)	-0.3	86.8	92.7	x
CCOc1ccc(-n2cc(-c3ccccc3)c3c(N4CCN(CC)CC4)ncnc32)cc1	-4.5	94.1	82.7	105.3
N/C(=N\N=C\c1ccco1)c1nonc1N	-34.3	99.4	93.6	106.0
CCCCc1ccc(NC(=O)NCCN2CCNC2=O)cc1	-4.4	105.1	101.9	106.5
O=C1CN(c2ccccc2)C(=O)N1c1ccccc1	-61.0	84.5	82.4	98.4
CC(Cc1ccccc1)NC(=O)c1ccccc1 (centres undefined)	-10.5	102.6	104.7	104.8
CCCNC(=O)c1ccc2nc(N3CCOCC3)sc2c1	2.1	104.5	97.4	105.6
CC1=CC2=NC(=N)/C(=C/C3CC=CCC3)C(=O)N2C=C1 (centres undefined)	-26.1	80.3	78.4	x
Cc1ccc(N2CC(C(=O)N3CCN(c4ccc(-c5noc(C)n5)cc4)CC3)CC2=O)cc1 (centres undefined)	-23.6	x	x	105.4

An excerpt of these results, with values under each structure.
Every second line gives: HCMV UL50-53 inh	Sa growth 42C	Sa growth 42C second temp	GIV Gai3 FP
- CCCCc1ccc(NC(=O)NCCN2CCNC2=O)cc1
→ -4.4	105.1	101.9	106.5
- O=C1CN(c2ccccc2)C(=O)N1c1ccccc1
→ -61.0	84.5	82.4	98.4
- N/C(=N\N=C\c1ccco1)c1nonc1N
→ -34.3	99.4	93.6	106.0

New compounds follow
SMILES	HCMV UL50-53 inh	Sa growth 42C	Sa growth 42C second temp	GIV Gai3 FP
Cc1cccc(-n2ncc(C(=O)NCc3ccc4c(c3)OCO4)c2C2CCN(C(=O)OC(C)(C)C)CC2)c1	x	93.5	78.5	103.2
CC(C)(C)n1nnnc1C(c1cccc(C(F)(F)F)c1)N1CCC(O)CC1 (centres undefined)	-5.6	112.4	81.6	105.1
Cc1cc(I)ccc1NC(=O)c1ccc(C(C)(C)C)cc1	x	106.0	84.4	101.1
Cc1nc2cccnc2n1-c1cc(C(=O)NCc2ccccc2F)ccc1Cl	-9.7	x	x	110.4
CCCc1c(C(=O)NC2Cc3ccccc3C2)cnn1-c1ccccc1	10.4	114.2	95.2	98.6
COc1ccc(S(=O)(=O)CCc2nnc(NC(=O)c3ccc(C(C)(C)C)cc3)s2)cc1	-12.0	x	x	95.9
CCN(CC)S(=O)(=O)c1ccc2c(c1)nc(CN(C)C(=O)Nc1ccc(C)c(F)c1)n2C	x	103.7	89.6	102.9
COc1ccc2c(C=Nc3ccccc3F)c(O)n(C)c(=O)c2c1	-27.4	101.9	89.0	x
Cc1cccc(S(=O)(=O)N2CCN(S(=O)(=O)c3ccc(C)c(C)c3)CC2)c1	-27.9	76.4	89.9	x
Cn1c(C(=O)N(CCc2ccccc2)Cc2ccccc2)cc2c(=O)n3ccccc3nc21	-24.4	x	x	102.8
COc1ccc2c(c1)c1c(c(=O)n(-c3ccccc3C)c(=O)n1Cc1c(F)cccc1Cl)n2C	x	107.3	99.1	107.0
CCC(c1nnc(SCC(=O)NCC(F)(F)F)n1Cc1ccccc1)N(C)C (centres undefined)	-20.7	97.6	95.7	x
CC1CCCN(c2ncccc2C(=O)NCC2CCCO2)C1 (centres undefined)	-0.8	93.4	93.4	101.2
COC(=O)CC1Oc2ccc(F)cc2-n2cc(-c3ccc(Cl)cc3)nc21 (centres undefined)	9.0	81.8	82.3	107.1
CCOc1ccc(Nc2nc(N3CCCCC3)nc(N3CCCCC3)n2)cc1	x	117.2	82.4	98.1
Cc1ccccc1OCC(=O)OCC(=O)Nc1cccc(Br)c1	-14.3	80.3	93.4	x
OC1(c2ccccc2F)CCNCC1	-12.3&9.7	90.6	88.2	99.4&105.1
O=C(NCc1cccs1)C12CC3CC(CC(C3)C1)C2	-6.8	108.3	101.6	106.0
O=S(=O)(c1cccc(Cl)c1)N1CC(OCc2ccccc2Cl)C1	0.1	x	x	96.5
O=C(CSCc1ccc(Cl)cc1)NC1CC1	-31.9	124.8	90.4	x
CCc1cc2c(=O)n(-c3ccccc3)c(SCC(=O)c3ccccc3)nc2s1	x	105.6	86.7	103.9
COc1cc(C2C(C#N)=C(N)OC3=C2C(=O)CC(C)(C)C3)ccc1OC(=O)N1CCOCC1 (centres undefined)	-29.7	x	x	100.9
CCOc1ccc(CCNC(=O)c2cn(CC)c3ccc(S(=O)(=O)N4CCc5ccccc5C4)cc3c2=O)cc1OCC	-15.5	102.9	80.5	102.1
CC(C)(C)OC(=O)N1CCC(c2c(C(=O)NCCN3CCOCC3)cnn2-c2ccc(F)cc2)CC1	x	81.5	93.4	104.2
Cc1cccc(NC2=CC(=O)CC(C)(C)C2)c1	8.2	101.6	88.0	103.6
COC(=O)c1c(C)csc1NC(=O)CSCc1c(F)cccc1Cl	-7.8	107.2	90.7	102.9
Cc1nc2onc(OCC(=O)OCc3ccccc3)c2c(C)c1C	-36.4	107.7	92.9	103.1
CCC(=O)c1ccc(OCC(=O)NC2CCCCC2C)cc1 (centres undefined)	3.5	107.9	96.7	x
Cc1ccc(-c2nn3c(Cn4cnc5ccccc54)nnc3s2)cc1C	-7.0	82.8	73.7	103.7
CCCc1cc2c(=O)c(-c3nc4ccccc4n3C)coc2cc1O	-8.1	93.3	92.9	x
Cc1ccc(Cn2c(SCC#N)nc3ccccc3c2=O)cc1	25.0	117.4	94.3	x
O=C1Nc2ccccc2C1c1c(-c2ccccc2Cl)[nH]c2[nH]c(=O)[nH]c(=O)c12 (centres undefined)	-22.6	x	x	102.7
O=C(CSC1=Nc2ccccc2C2=NC(Cc3ccccc3)C(=O)N12)Nc1ccccc1F (centres undefined)	x	117.3	79.5	104.0
C=CCn1c(NC(=O)CC)nc2ccccc21	-19.9	88.3	45.6	102.2
CC(C)COC(=O)N1CCCC1C(=O)Nc1ccccc1 (centres undefined)	-20.7	96.7	73.4	103.1
CN(CC1COc2ccccc2O1)S(=O)(=O)c1ccc(-c2cc(C(F)(F)F)no2)s1 (centres undefined)	-31.2	82.4	86.7	102.9
CCc1nc2c(cnn2-c2ccccc2)c(=O)[nH]1	-10.1	95.4	82.9	x
O=c1[nH]c2ccccc2c(=O)n1C1CCCCC1	6.2	95.5	86.0	103.9&104.0
Oc1ccc2ccccc2c1C=NC1CC1	-11.4	93.9	87.1	x
O=c1[nH]c2cc3c(cc2c(=O)n1CCCc1nc(-c2ccccc2)no1)OCO3	-10.8	x	x	102.4
CCOC(=O)c1cc(-c2ccnn2C(=O)c2ccccc2)on1	5.6	104.2	101.1	102.7
CC(=Nc1ccc(S(=O)(=O)N2CCCC2)cc1)c1ccccc1	-24.8	101.1	85.9	x
O=C(CSc1nc(-c2ccccc2)nc2cc(=O)[nH]n12)N1CCc2ccccc21	-27.1	x	x	98.9
CCOC(=O)c1cc(S(=O)(=O)N2CCN(c3ccccn3)CC2)[nH]n1	1.6	x	x	98.7
CCOC(=O)c1cc(S(=O)(=O)N2CCN(c3cccc(C)c3)C(C)C2)[nH]n1 (centres undefined)	x	90.5	90.7	104.8
CCN(CC)S(=O)(=O)c1ccc(C(=O)N=c2sc3cccc(OC)c3n2C)cc1	7.8	92.0	90.9	101.3
COc1ccc(-c2cc3nccc(C4CCN(C(=O)OC(C)(C)C)CC4)n3n2)cc1	4.5	99.2	105.4	98.9
CC1CCC(NC(=O)C(NC(=O)C2CCC(C)CC2)C(C)C)CC1 (centres undefined)	x	114.8	99.1	102.4
O=C(N/N=C/c1ccccc1Cl)C1CC1	-51.7	95.6	74.8	98.8
O=c1[nH]c(=S)[nH]nc1-c1ccc(O)cc1	-111.1	61.0	62.9	101.4
O=C1C2C3C=CC(CC3)C2C(=O)N1c1ccc(Cl)c(C(F)(F)F)c1 (centres undefined)	-12.9	x	x	103.8
CC(C)OC(=O)COc1cc2oc(=O)c3c(c2cc1Cl)CCC3	x	97.3	95.5	101.4
CCSc1nc2ccccc2c(OCc2cc(C(=O)OC)ccc2OC)c1C(=O)OC	2.7	92.9	84.4	101.9
Cc1ccc(S(=O)(=O)N(C)CC(=O)N2CCCc3ccccc32)cc1	-11.2	103.5	95.9	107.9
CC(=O)Nc1ccccc1-c1nnc(SCC(=O)Nc2ccc(Br)cc2)[nH]c1=O	-5.0	x	x	101.5
COc1cccc(-c2noc(CSc3nc4sc5c(c4c(=O)n3C(C)C)CCC5)n2)c1	-37.0	110.9	83.2	x

(next part)
SMILES	HCMV UL50-53 inh	Sa growth 42C	Sa growth 42C second temp	GIV Gai3 FP
CC1CCCC(C)N1C(=O)COc1cccc(Br)c1 (centres undefined)	19.5	103.5	105.0	x
COc1ccc2cc(C(C)C(=O)OCC(=O)N3CCCc4ccccc43)ccc2c1 (centres undefined)	10.8	81.2	113.7	x
CC(C)(C)c1ccc(S(=O)(=O)N2CCN(Cc3cc4c(cc3O)OCO4)CC2)cc1	-8.5	106.0	90.3	x
C[n+]1c(-c2ccccc2)csc1NC1CCCCC1	-36.7&7.1	102.1&103.4	82.2&95.6	97.3&109.0
O=C(O)CCc1nc2cc(C(F)(F)F)ccc2n(Cc2ccccc2)c1=O	-8.3	95.9	94.7	x
COC(=O)c1cnc(SCc2ccc(C(C)(C)C)cc2)nc1N	-17.7	87.6	82.7	101.8
CC(SC1=NN2CCCC(=O)N=C2S1)c1ccccc1 (centres undefined)	x	95.5	70.3	99.7
Cc1sc(-c2noc(C3CCC3)n2)cc1NC(=O)c1cnccn1	-15.7	x	x	108.5
Cc1ccc(C(CC(=O)N2CCNCC2)c2ccccc2)c(O)c1C (centres undefined)	-14.6	98.1	84.4	102.7
CC(C)(C)NC(=O)NC(=O)Cn1c(NCCO)nc2ccccc21	-34.5	85.6	92.0	x
CCOC(=O)NN=C(C1CC1)C1CC1	-24.2	99.5	100.3	x
O=C(Nc1ccccc1[N+](=O)[O-])c1cc(-c2ccccc2)nc2ccccc12	-7.2	x	x	103.5
C#CCSc1nc2c(c(=O)[nH]1)C(c1ccc(F)cc1F)CC(=O)N2 (centres undefined)	0.1	x	x	104.1
O=C(O)/C=C/c1ccc(/C=N/n2ncc3ccccc32)cc1	-43.7	53.0	91.3	x
CCOc1ccc(Cl)cc1S(=O)(=O)NC	-4.0	104.7	93.0	100.3
CSC1=N/C(=C\c2ccccc2C)C(=O)S1	x	78.1	93.0	105.6
CCC(C)NC(=O)c1nn(C)c2c1COc1ccccc1-2 (centres undefined)	x	81.9	76.2	101.2
O=C(NCc1ccncc1)c1c(O)c2ccccc2[nH]c1=O	-16.2	123.2	88.1	106.5
CSc1nc2ccccc2n1CCOc1ccccc1	-10.9	91.2	75.9	100.0
